Autofluor counter – compound fluorescence in toxin protease inhibitor counterscreen; compound autofluorescence counterscreen, microsphere flow cytometry; stronger effect = higher value; actives 3.1% (n = 360,000); fluorescence intensity (test concentration not listed);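 active means at least 3 SD above the mean of all compounds, about 16000 in these data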;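 further: 100 nL of 1 mM stock went into each well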
* marks the source's active call; other numbers are inactive results; & = joins results of further samples. A portion of the library; the hit share may differ from the screen's.

canonical_smiles | Autofluor counter
CC=CC(C)=CC(C)C(=O)CC(O)CC1CC(=O)NC(=O)C1 (centres undefined) | 3669
OC(c1ccccc1)c1nc(-c2cnc3ccccc3c2)cs1 (centres undefined) | 3832
Cc1ccc(C(=O)N2CCC2(C)C(=O)NC(C)C)cc1 (centres undefined) | 3834
C[C@H](CO)N1C[C@H](C)[C@@H](CN(C)Cc2ccncc2)OCc2cnnn2CCCC1=O | 3713
O=C1c2ccccc2C(c2nnnn2Cc2ccccc2)N1Cc1cccs1 (centres undefined) | 4146&6248
O=C(COC(=O)Cc1ccccc1F)NCc1ccccc1Cl | 3968
COCCNc1nc2cc(-c3ccc(C)cc3)sc2c(=O)n1C | 3732
CCOC(=O)[C@]12CCC=C1N(CCC1=CCCCC1)C(=O)[C@H](CC(=O)N1CCN(C(=O)C3CC3)CC1)C2 | 6151
CC1(C(=O)NS(=O)(=O)c2ccc(F)cc2F)CCN1C(=O)c1cccc(F)c1 (centres undefined) | 3646
CN(C)c1ccc(CNC(=O)C2(C)Cc3c(-c4cccc(C(F)(F)F)c4)ccnc3O2)cc1 (centres undefined) | 3597
COc1cccc(-c2sc3ccc(OC)cc3c2-c2cnc(N3CCOCC3)nc2)c1 | 5528
O=C1NC[C@H](Cc2ccc(O)cc2)N(CCc2cc(C(F)(F)F)cc(C(F)(F)F)c2)C1=O | 4244
CN(C)c1ccc(-c2csc(C(O)c3ccc(F)cc3)n2)cc1 (centres undefined) | 3493
CCOc1ccc(-c2cc(C(=O)NCc3ccc(C(F)(F)F)cc3)[nH]n2)c(C)c1 | 3677
COc1ccc(CN2C(=O)C(CC(=O)NCc3ccco3)CC(C(=O)N(C(C)C)C(C)C)=C2C)cc1 (centres undefined) | 2930
COC(=O)CCCn1cc(CN2CC(N3CCCC3)CS2(=O)=O)nn1 (centres undefined) | 5466
COc1ccccc1-c1noc2c1C(=O)N(Cc1cn(C3CCCC3)nn1)CC2 | 5950
CNC[C@H]1Oc2cc(Br)ccc2S(=O)(=O)N([C@@H](C)CO)C[C@H]1C | 6792
O=[N+]([O-])c1ccc(S(=O)(=O)Nc2ccc(-c3ccccc3)cc2)cc1 | 3498
CCOC(=O)C1(C)CCCN(C(=O)c2ccc(OC)cc2)C1 (centres undefined) | 3813
COc1cccc(C=C2Cc3ccccc3C2=O)c1 | 6088
O=C1c2ccccc2C(c2nnnn2-c2ccc3c(c2)OCCO3)N1Cc1cccc(F)c1 (centres undefined) | 5184&5546
CCOC(=O)Nc1ccc(S(=O)(=O)N2CCC(c3nc4ccccc4[nH]3)CC2)cc1 | 2803
COc1cc(F)ccc1-c1cc(C(=O)Nc2ccc(C)c(NS(C)(=O)=O)c2)[nH]n1 | 2766
CC(C)NC(=O)N(C)C[C@@H]1Oc2cc(Br)ccc2S(=O)(=O)N([C@@H](C)CO)C[C@H]1C | 3172
N#Cc1ccc(-c2ccc3nccn3c2)cc1 | 3657
CCCCN(C=O)c1c(CC)nc2c(OCc3ccccc3C(=O)OC)cccn12 | 4035
COc1cccc(-c2cnc(C(O)c3ccc(C)cc3C)[nH]2)c1 (centres undefined) | 2901
NC(c1ccccc1)c1csc(Nc2cc(Oc3ccccc3)ncn2)n1 (centres undefined) | 3860
O[C@H]1C[C@H](c2ccc(Cl)cc2)N(Cc2cccs2)C[C@@H]1n1cc(C2CC2)nn1 | 3853

Next part, starting with the last 6 of the part before.
canonical_smiles | Autofluor counter
CC(C)NC(=O)N(C)C[C@@H]1Oc2cc(Br)ccc2S(=O)(=O)N([C@@H](C)CO)C[C@H]1C | 3172
N#Cc1ccc(-c2ccc3nccn3c2)cc1 | 3657
CCCCN(C=O)c1c(CC)nc2c(OCc3ccccc3C(=O)OC)cccn12 | 4035
COc1cccc(-c2cnc(C(O)c3ccc(C)cc3C)[nH]2)c1 (centres undefined) | 2901
NC(c1ccccc1)c1csc(Nc2cc(Oc3ccccc3)ncn2)n1 (centres undefined) | 3860
O[C@H]1C[C@H](c2ccc(Cl)cc2)N(Cc2cccs2)C[C@@H]1n1cc(C2CC2)nn1 | 3853
CN(Cc1ccccc1)C(=O)c1[nH]c(C(F)(F)F)nc1-c1ccccc1 | 5156
Nc1nc2c(Br)ccc(Br)c2cc1C(=O)NCc1cccc2ccccc12 | 5996
O=c1[nH]c2ccccc2n1C1CCN(C(c2nnnn2-c2ccc3c(c2)OCCO3)C2CC2)CC1 (centres undefined) | 5927
COc1ccc(CN(C)C(=O)/C=C/[C@H]2O[C@@H](n3cc(C)c(=O)[nH]c3=O)C[C@@H]2O)cc1OC | 4543
CCC1Oc2ccccc2N(CC(=O)N2CCCC2)C1=O (centres undefined) | 3878
O=c1oc2cc(O)ccc2cc1-c1nc2ccccc2o1 | 5427
O=C(NCCN1CCC(n2c(=O)[nH]c3ccccc32)CC1)c1ccc(F)c(F)c1 | 6240
COc1ccccc1-c1cc(NC=O)c2ncc(-c3cccc(C(C)=O)c3)n2c1 | 3173
CCCc1nc2ccc(Cl)cn2c1Cc1ccccc1 | 5356
CCCCCCn1cc(CN2CC(N(C)C)CS2(=O)=O)nn1 (centres undefined) | 6056
CCCCNC(=O)C1(C)CCN1C(=O)c1oc2ccccc2c1C (centres undefined) | 3843
C[C@H](CO)N1C[C@H](C)[C@H](CN(C)S(=O)(=O)c2ccc(-n3cccn3)cc2)OCc2cnnn2CCCC1=O | 3489
CCC(Oc1ccccc1)C(=O)OCC(=O)Nc1c(C)nn(-c2ccccc2)c1C (centres undefined) | 3639
C[C@@H]1Cn2cnc(C(=O)NCC(=O)OC(C)(C)C)c2C(=O)N1 | 3680
CN(C)C(=O)c1ccc(Cc2cn(C)c3ccccc23)nc1 | 2890
Cc1ccsc1-c1cc2nc(Nc3ccc(F)cc3)n(C)c(=O)c2s1 | 3048
COc1ccccc1Cc1c(-c2ccco2)nc2cc(C)c(Br)c(C)n12 | 4727
Cc1cccc(C)c1Cn1c(C)c(C(=O)NCc2ccc([N+](=O)[O-])cc2)sc1=O | 5685
C[C@@H]1CCCCO[C@H](CN(C)Cc2ccc(C(=O)O)cc2)[C@@H](C)CN([C@H](C)CO)C(=O)c2cc(N(C)C)ccc2O1 | 2895
Cc1noc(C)c1CCC(=O)Nc1cc(C(=O)O)ccc1Cl | 3990
CC1Cc2ccccc2N1C(=O)Cn1cc(C(F)(F)F)ccc1=O (centres undefined) | 3847
COCCNC(=O)C1CCCN(C(=O)/C=C/c2ccccc2)CC1 (centres undefined) | 3110
COc1cc(CNC(=O)c2cc(-c3cc(F)ccc3OCC3CCCO3)n[nH]2)cc(OC)c1 (centres undefined) | 3785
Brc1cccc(-c2nc3ccc(Br)cn3c2Cc2ccccc2)c1 | 9784
CCCCC(=O)N(C)c1c(C)nc2ccc(C(=O)N(C)Cc3ccco3)cn12 | 3980
CCCCCCn1c(=O)n2n(c1=O)[C@@H]1CN(S(=O)(=O)c3ccc(C)cc3)C[C@]1(O)[C@@H](OC(=O)NCc1ccco1)C2 | 4370
CN(Cc1ccccc1)C(=O)c1ccc(Cc2cn(C)c3ccccc23)nc1 | 2762
C#CCN(C[C@H]1[C@H](OC(=O)NCC2CCCCC2)[C@H](OC(=O)NCC2CCCCC2)C[C@H]2C(=O)N(c3ccccc3)C(=O)[C@@H]12)S(=O)(=O)c1ccc(C)cc1 | 3835
COC(=O)c1ccc(CSc2ccccc2NC(=S)Nc2cccc(SC)c2)o1 | 3482
CN(C(=S)NC(=O)C1CCCC1)c1ccccc1 | 3996
C[C@H](CO)N1C[C@H](C)[C@@H](CN(C)Cc2cccc3c2OCCCO3)OCc2cnnn2CCCC1=O | 3313
CC(O)(c1ccc(F)c(F)c1)c1nc(-c2cccc(C(=O)O)c2)cs1 (centres undefined) | 2871
CCOC(=O)C1=C[C@@H](CC)N(S(=O)(=O)c2ccc(C)cc2)[C@H]1c1ccccc1 | 4444
COc1ccc(-c2coc3c(C(=O)Nc4cccc(C(C)=O)c4)cccc23)c(C)c1 | 2718
CCOC(=O)C1(C)CCN1C(=O)c1ccc(F)c(Cl)c1 (centres undefined) | 3018
CCCCc1c(-c2ccccc2Br)ncn1CCc1ccccc1OC | 5695
CC1(C(=O)NS(=O)(=O)c2cccc(OC(F)F)c2)CCN1C(=O)C1CCCCC1 (centres undefined) | 2765
CCNC(=O)C1CCCN(C(=O)c2ccc3c(c2)OCO3)CC1 (centres undefined) | 3567
O=C(NCc1ccccc1F)C1CC(=O)N(Cc2ccco2)C1 (centres undefined) | 3760
CCCNC(=O)c1cc(C2CCCN(C(=O)c3cc(F)ccc3C)C2)on1 (centres undefined) | 3832
Cc1nc(C(F)(F)F)ccc1C(=O)N1CCC1(C)C(=O)NS(=O)(=O)c1ccc(C(C)(C)C)cc1 (centres undefined) | 2806
O=C(Nc1ccc(Oc2ccccc2)cc1)c1csc([C@H]2C[C@H](O)[C@@H](CO)O2)n1 | 3866
COc1cccc(-c2cccc(-c3nc(C(=O)NCCCN4CCOCC4)cc4c3[C@H](CCO)N(S(=O)C(C)(C)C)C4)c2)c1 (some centres undefined) | 4484
Cc1ccc(CN2CCC[C@]3(N[C@H](c4ccc(C)cc4)[C@@H]4C(=O)N(Cc5ccccc5)C(=O)[C@@H]43)C2=O)cc1 | 3731
O=[N+]([O-])c1ccc(CN2CC(N3CCCC3)CS2(=O)=O)cc1 (centres undefined) | 3789
Nn1c(SCC(=O)N2CCCC2)nnc1-c1cccs1 | 2918
O=C(NC1CCCCC1)C(c1ccnc2ccccc12)N1CCOCC1 (centres undefined) | 5447
COc1cc(C(C)=O)ccc1OC(=O)N1CCOCC1 | 2948
COc1cc(-c2cc3nc(NCc4ccco4)ccn3n2)cc(OC)c1OC | 4227
OC(c1cccc(CN2CCCCC2)c1)c1ncc(-c2cccc3ccccc23)[nH]1 (centres undefined) | 4071
Cc1ccc2c(c1)c1c3n2CCN(CCC#N)C3CCC1 (centres undefined) | 4241
Cc1cccc(NC(=O)COC(=O)CN2C(=O)c3ccccc3C2=O)c1 | 3986
CCc1nc2c(OCc3ccc(C#N)cc3)cccn2c1N(C)C(=O)c1ccco1 | 3598
CCOc1ccc(CCN2C(=O)C(=O)N([C@@H](Cc3ccc(O)cc3)CN3CCC[C@H]3CN3C(=O)C(=O)NC[C@@H]3Cc3ccc(O)cc3)C[C@@H]2Cc2ccccc2)cc1 | 4383
O=C1NC[C@H](Cc2ccc(O)cc2)N(CCc2cccc(F)c2)C1=O | 5049
CCCn1cnnc1CNC(=O)[C@H]1O[C@@H](n2ccc(N)nc2=O)[C@H](O)[C@@H]1O | 5181
CC12CCC(=O)N1C(C(=O)Oc1cccc(F)c1)CS2 (centres undefined) | 3053
O=C1NC[C@H](Cc2ccccc2)N(CCc2cc(C(F)(F)F)cc(C(F)(F)F)c2)C1=O | 4308
COc1ccc(OC)c(-c2nn(-c3ccccc3)cc2C(=O)NC2(C)CCS(=O)(=O)C2)c1 (centres undefined) | 3602
COc1ccc(N2CCN(C(=O)COC(=O)c3nc(Cl)ccc3Cl)CC2)cc1 | 4078

Filtered by structure: those above containing a cyano group
canonical_smiles | Autofluor counter
N#Cc1ccc(-c2ccc3nccn3c2)cc1 | 3657
Cc1ccc2c(c1)c1c3n2CCN(CCC#N)C3CCC1 (centres undefined) | 4241
CCc1nc2c(OCc3ccc(C#N)cc3)cccn2c1N(C)C(=O)c1ccco1 | 3598

(listing goes on)
canonical_smiles | Autofluor counter
COC(=O)C(CSCc1ccccc1)NC(=O)CCNC(=O)OCc1ccccc1 (centres undefined) | 4074
NC(=O)c1cccc(-c2ccnc3c2CC(C(=O)Nc2cccc(C(F)(F)F)c2)O3)c1 (centres undefined) | 4060
Cc1ccc(OCC(=O)Nc2cc(Cl)ccc2-n2cncn2)c(C)c1 | 3632
COc1ccc(C(O)c2nc(-c3cccc(C(=O)O)c3)cs2)cc1 (centres undefined) | 3388
CN(Cc1ccccc1)N=Nc1nc[nH]c1C(N)=O | 6109
OC(c1ccc(F)c(F)c1)c1nc(-c2ccc3ccccc3c2)cs1 (centres undefined) | 3530
O=C1NC(Cc2ccccc2)c2nc3cc(F)ccc3c(=O)n2-c2ncccc21 (centres undefined) | 3586
CCN1CCN(C(=O)c2ccc(CS(=O)(=O)Cc3ccccc3Cl)o2)CC1 | 3588
CC(C)N(C)c1ncnc2c1ncn2[C@H]1CN(Cc2ccc(F)cc2)C[C@@H](CO)O1 | 3156
Cn1c(=O)n(C)c2cc(NC(=O)c3ccccc3)ccc21 | 3190
C[C@@H]1CC2=C(C(=O)OC(C)(C)O2)[C@H](c2ccc(F)cc2)O1 | 5818
CN(C(=O)C1Cc2c(-c3ccc(Cl)cc3)ccnc2O1)c1ccccc1 (centres undefined) | 3681
O=C1NC(Cc2ccccc2)c2nc3cc(Cl)ccc3c(=O)n2-c2ncccc21 (centres undefined) | 3477
Nc1ccn(CCCNC2CCN(Cc3ccccc3)CC2)c(=O)n1 | 3504
COC(=O)[C@H](CC(C)C)NC(=O)/C=C/[C@H]1O[C@@H](n2cc(C)c(=O)[nH]c2=O)C[C@@H]1O | 5850
CC1(C(=O)Nc2ccc3c(c2)OCO3)CCN1C(=O)c1ccco1 (centres undefined) | 3452
CCOC(=O)C1CCc2c(ccc3ccccc23)N1CCC#N (centres undefined) | 3643
CN1CCCCC1(C)C(=O)NCc1ccc(C(C)(C)C)cc1 (centres undefined) | 3033
c1ccc(-c2ccc(CN3Cc4ccccc4-n4nncc4C3)cc2)cc1 | 3461
CC1(C(=O)NCc2cccc3ccccc23)CCN1C(=O)C1(c2ccccc2)CC1 (centres undefined) | 3786
CCOC(=O)N(C)C[C@@H]1OCc2cnnn2CCCC(=O)N([C@H](C)CO)C[C@@H]1C | 3688
COc1ccc(S(=O)(=O)N2CCOCC2)cc1NC(=O)C1CC(=O)N(c2ccc3c(c2)OCCO3)C1 (centres undefined) | 3750
